High-throughput results: PubChem, National Center for Advancing Translational Sciences (NCATS)
VDR inhibitor – vitamin D3 receptor (human) inhibition; 400,000 tested, 0.93% active; Potency, µM, for the others: max response, negative = inhibition, hits mostly inhibitors; P11473; VDR-SRC2-3 peptide fluorescence polarization, 2 h; active = well fitted inhibition curve with a large enough effect; inconclusive = small, poorly fitted or top-dose-only effect, or another doubt; inactive = no such curve, though single readings can be large or run the other way; also: series mostly up to about 120 µM
Target sequence (P11473 whole entry, looked up): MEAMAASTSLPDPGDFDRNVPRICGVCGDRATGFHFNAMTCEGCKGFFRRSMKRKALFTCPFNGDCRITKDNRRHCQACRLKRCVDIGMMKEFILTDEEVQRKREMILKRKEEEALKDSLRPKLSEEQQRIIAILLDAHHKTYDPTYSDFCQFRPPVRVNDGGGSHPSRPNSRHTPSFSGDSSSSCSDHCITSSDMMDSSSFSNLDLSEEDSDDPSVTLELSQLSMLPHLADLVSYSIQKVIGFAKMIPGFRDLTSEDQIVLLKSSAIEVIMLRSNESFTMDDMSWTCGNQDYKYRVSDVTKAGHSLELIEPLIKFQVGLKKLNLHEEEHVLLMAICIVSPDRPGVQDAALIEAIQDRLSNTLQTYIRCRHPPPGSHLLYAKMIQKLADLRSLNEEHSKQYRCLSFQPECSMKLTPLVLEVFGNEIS
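Fluorescence polarization assay measuring small-molecule disruption of VDR binding to the coregulator peptide SRC2-3. Compounds were pin-transferred (23 nl) into the reagent mix and incubated 2 h at room temperature before reading.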
Starred values were filed as active, the others as inactive; ? = inconclusive; & = joins results of further samples; [ ] = remark or other dose. % is scaled to controls: 0 for no effect and ±100 for the full control effect; potency is read from the fitted curve at half-maximal effect. Not all compounds are listed; rates above refer to the full screens.

#	VDR inhibitor	canonical_smiles
1	16%	COc1ccc(C(=O)Nc2cc(C)on2)cc1[N+](=O)[O-]
2	-8%	COc1ccc(-c2nc(SCC(=O)Nc3cccc(S(N)(=O)=O)c3)n[nH]2)cc1
3	25µM*	O=C(c1ccc(Cl)cc1)C(CN1CCCC1)c1ccccc1 (stereo not drawn)
4	1%	Cc1ccc(NC2c3ccccc3C(=O)N2c2cccnc2)cc1 (stereo not drawn)
5	-10%	O=C1CCN(Cc2ccccc2)C=C1c1cccc(O)c1
6	21%	O=C(CCn1c(=O)oc2ccc(Cl)cc21)N1CCN(c2ccccc2)CC1
7	3%	COc1ccc(CNC(=O)c2cnc(C)cn2)c(OC)c1
8	1%	CC1CCc2c(sc(NC(=O)CSc3nc4c(c(C(F)(F)F)n3)CCc3ccccc3-4)c2C(N)=O)C1 (stereo not drawn)
9	-10%	COc1ccc(-c2nc(C)ncc2-c2csc(C)n2)c(O)c1
10	-10%	C=CCOc1ccc(CNc2nccs2)cc1OCC
11	2%	CC1(C)CC(OC(=O)c2ccccc2)CC(C)(C)N1
12	-18%	COc1ccc(-c2cc3ccccc3oc2=O)cc1
13	-10%	CCOc1ccc(CCNC(=O)COC(=O)COc2ccc(C(C)=O)cc2)cc1OCC
14	-3%	Cn1c(=O)c2c(nc(Cl)n2Cc2ccncc2)n(C)c1=O
15	-17%	CCC(C)NC(=O)c1cccc(C)c1 (stereo not drawn)
16	-22%	Cc1ccccc1S(=O)(=O)Oc1cccc2c(O)cccc12
17	-12%	CN(C)S(=O)(=O)N(CC(=O)NCCSCc1c(F)cccc1Cl)c1ccccc1
18	-9%	Cc1ccc(OCCNC(=O)c2cc(C(=O)NCCOc3ccc(C)cc3)cc([N+](=O)[O-])c2)cc1
19	-1%	CCCN(CC(=O)Nc1ccccc1OC)C(=O)c1ccccn1
20	-8%	COc1ccc(N2CCN(C(=O)CCS(=O)(=O)c3cccc4nsnc34)CC2)cc1
21	17%	CCCSc1nc2c(c(=O)[nH]1)C(c1ccc(O)c(OCC)c1)CC(=O)N2 (stereo not drawn)
22	11%	Cc1cccc(OCCCC(=O)Nc2ccc(Br)cc2)c1
23	3%	CN(CCCCCCCCC(=O)/C=N/O)Cc1ccccc1
24	-2%	CCO[C@H]1OC(C(=O)N2CCN(C)CC2)=C[C@@H](C(C)(C)C)[C@@H]1CCCO
25	-8%	O=C(CCCn1c(=S)[nH]c2cc3c(cc2c1=O)OCO3)NCc1cccc(Cl)c1

Reprinted from the part before: 2 compounds; new compounds follow.
#	VDR inhibitor	canonical_smiles
24	-2%	CCO[C@H]1OC(C(=O)N2CCN(C)CC2)=C[C@@H](C(C)(C)C)[C@@H]1CCCO
25	-8%	O=C(CCCn1c(=S)[nH]c2cc3c(cc2c1=O)OCO3)NCc1cccc(Cl)c1
26	12%	CN(C)c1ccc(CNc2nc(-c3ccco3)nn2S(=O)(=O)c2ccc3ccccc3c2)cc1
27	9%	CCOC(=O)NC(=O)COC(=O)c1cccc2ccccc12
28	0%	CC(=O)c1cccc(Nc2cc(C)nc3c(C)cccc23)c1
29	-10%	CC12CCC(C(=O)N/N=C/c3ccc(O)cc3)(OC1=O)C2(C)C (stereo not drawn)
30	10%	O=C(NCCNC(=O)C(c1ccccc1)c1ccccc1)c1ccco1
31	4%	Cc1ccc(C2=N/C(=C\c3c(C)nn(-c4ccccc4)c3N3CCCC3)C(=O)O2)cc1
32	5%	CCOc1ccc(CCNC(=O)CSc2nc3ncc(Cl)cc3[nH]2)cc1OCC
33	9%	Cc1ccccc1Nc1ncccc1C(=O)N1CCOCC1
34	-10%	CCSc1ccccc1C(=O)NCCCn1ccnc1
35	-1%	O=C(c1cc(C(=O)N2CCCC2)cc([N+](=O)[O-])c1)N1CCCC1
36	1%	N#Cc1cccc(S(=O)(=O)NCc2nnc3ccccn23)c1
37	-4%	Cc1nn2c(-c3cccc(NC(=O)c4ccccc4)c3)nnc2c2ccccc12
38	4%	COc1ccccc1CNC(=O)C1CCN(c2nc3ccc(C)cc3[nH]2)CC1
39	7%	CCOc1ccc(C(=O)Nc2ccc(-c3nc4ccccc4s3)c(C)c2)cc1OCC
40	-19%	COc1ccc(/C=C2\CN(Cc3ccccc3)C/C(=C\c3ccc(OC)cc3)C2=O)cc1
41	1%	Cc1cc(C)c2nc3nc(C)c(C)cc3c(N)c2c1
42	-25%	N#CCc1c(C#N)c(N)nc(N2CCN(Cc3ccc4c(c3)OCO4)CC2)c1C#N
43	-4%	COC(=O)/C(=N\Nc1ccccc1)Sc1nnc(-c2ccc(OC)cc2)n1C
44	-4%	O=c1c(N2CCCCC2)csc2ccc(F)cc12
45	-7%	COc1cccc(NC(=O)CCC2CCN(C(=O)c3scnc3C)CC2)c1
46	9%	Cc1cccc(NC(=O)C2CCCN(S(=O)(=O)c3c(C)noc3/C=C/N(C)C)C2)c1C (stereo not drawn)
47	-9%	C1CCc2c(nnc3c2-c2nonc2CC3)C1
48	1%	CCCCCCCCOc1ccc(C(=O)c2ccccc2)c(O)c1
49	9%	Cc1nc(N2CCOCC2)c2c(C(=O)NCc3ccc(Cl)cc3)c(C)oc2n1
50	-4%	C=CCNC(=O)N1CCC(n2nccc2NC(=O)CCc2ccccc2)CC1

Marked active in VDR inhibitor, of those listed so far:
#	VDR inhibitor	canonical_smiles
3	25µM*	O=C(c1ccc(Cl)cc1)C(CN1CCCC1)c1ccccc1 (stereo not drawn)

Next part:
#	VDR inhibitor	canonical_smiles
51	-25%	COc1ccc(CNCc2ccc(C(F)(F)F)cc2)cc1OC
52	-11%	COc1ccc(Br)cc1CN1CCN(S(=O)(=O)Cc2ccccc2)CC1
53	4%	COc1ccccc1CNC(=O)c1cc2c(=O)n(Cc3cccs3)ccc2nc1C
54	5%	CCc1nc(NCC2CCCO2)c(C#N)c2c1COC(C)(C)C2 (stereo not drawn)
55	7%	Cc1ccnc(NS(=O)(=O)c2ccc(NC(=O)C3CCCO3)cc2)n1 (stereo not drawn)
56	0%	CS(=O)(=O)N1CCC2(CC1)CN(C(=O)Nc1cccc(F)c1)C2
57	45µM*	CN(C)C(=S)N=c1ssc(=S)n1Cc1ccco1
58	-16%	Cn1nc(C(=O)OCC(=O)c2ccc(Br)cc2)c2ccccc2c1=O
59	9%	Cc1nc(-n2nc(C)c(CCC(C)C)c2C)sc1C(=O)Nc1ccc(Cl)cc1
60	8%	CCc1ccc(OCCNc2cc(N3CCNC(C)C3)ccc2[N+](=O)[O-])cc1 (stereo not drawn)
61	-2%	Cc1nc(-c2ccncc2)nc(NCCNc2ccc(C(F)(F)F)cn2)c1Cl
62	-8%	Cc1nnc(NC(=O)CSc2ccc(-c3cccnc3)nn2)s1
63	32%[activator]	Cc1ccc(NC(=O)CCN2CCN(C)CC2)cc1
64	-21%	Cc1ccccc1-n1c(-c2ccc(Cl)cc2)cnc1SCC(=O)NC1CCS(=O)(=O)C1 (stereo not drawn)
65	-16%	Cc1ccc(S(=O)(=O)NCCc2cccs2)cc1
66	2%	CS(=O)(=O)N1CCC(C(=O)N2CCN(c3cccc(Cl)c3)CC2)CC1
67	79µM*	CCOC(=O)c1c(-c2ccccc2)csc1NC(=O)c1cc(-c2ccc(Br)cc2)on1
68	7%	CC(Oc1ccccc1)C(=O)NC1CCCCCCC1 (stereo not drawn)
69	15%	CCCCCc1cc(O)c2c(C)cc(=O)oc2c1
70	22%	O=C1CCCN1CCCNC(=S)Nc1cccc2ccccc12
71	?	CC(=O)Nc1cccc(N)c1
72	-15%	O=C(N/N=C\c1ccccn1)c1ccccc1O
73	-8%	Cc1csc(NC(=O)CSc2nnc(NC(=O)COc3ccccc3)s2)n1
74	-4%	CCCCn1c(N)c(N(CC(C)C)C(=O)CC2OC(=O)c3ccccc32)c(=O)[nH]c1=O (stereo not drawn)
75	5%	CCCOc1nc(N)c(C#N)c(-c2ccccc2F)c1C#N

Arranged by value in VDR inhibitor (lowest first): some entries from above
#	VDR inhibitor	canonical_smiles
62	-8%	Cc1nnc(NC(=O)CSc2ccc(-c3cccnc3)nn2)s1
75	5%	CCCOc1nc(N)c(C#N)c(-c2ccccc2F)c1C#N
70	22%	O=C1CCCN1CCCNC(=S)Nc1cccc2ccccc12

For convenience, some entries already given:
#	VDR inhibitor	canonical_smiles
73	-8%	Cc1csc(NC(=O)CSc2nnc(NC(=O)COc3ccccc3)s2)n1
74	-4%	CCCCn1c(N)c(N(CC(C)C)C(=O)CC2OC(=O)c3ccccc32)c(=O)[nH]c1=O (stereo not drawn)
75	5%	CCCOc1nc(N)c(C#N)c(-c2ccccc2F)c1C#N

Additional structures follow:
#	VDR inhibitor	canonical_smiles
76	-2%	Cc1[nH]c2ccccc2c1CCO
77	-11%	COCCC(=O)N1CCC(Oc2ccc(C(=O)NC3CCCCC3)cc2)CC1
78	-9%	COc1ccc(-c2nnnn2C)cc1S(=O)(=O)NCCc1ccccc1
79	11%	Cc1c(NC(=S)N/N=C/C=C/c2ccc([N+](=O)[O-])cc2)c(=O)n(-c2ccccc2)n1C
80	-4%	O=C(NCc1ccc(F)cc1)c1cccc2c1C(=O)N(Cc1cccnc1)C2
81	-12%	CS(=O)(=O)c1ccc2nc(NC(NC(=O)c3ccco3)(C(F)(F)F)C(F)(F)F)sc2c1
82	-12%	CC(=O)c1c(C)[nH]c(C(=O)Nc2ccc(Cl)cc2F)c1C
83	13%	COc1ccccc1OCCC(=O)OCC(=O)NC(=O)NC(C)(C)C
84	6%&-6%	COc1ccc(S(=O)(=O)Nc2c(C)n(C)n(-c3ccccc3)c2=O)cc1Br
85	-16%	CCOc1ccc(NC(=O)N(CCN(C)C)C(C)c2ccncc2)cc1 (stereo not drawn)
86	-12%	O=C(Nc1cccc(S(=O)(=O)N2CCCCC2)c1)c1ccc2ccccc2n1
87	-9%	Cc1cc(-c2ccccc2)nc2c(Br)c(=O)[nH]n12
88	7%	CCOc1ccc(N(CC(=O)Nc2ccccc2F)S(=O)(=O)c2c(C)[nH]c(=O)[nH]c2=O)cc1
89	9%	O=C(Nc1ccccc1C(=O)NCc1ccccc1)c1ccccc1
90	6%	CCN(CC)CCNC(=O)C1CCN(S(=O)(=O)N2CCCCC2)CC1
91	-6%	COc1ccc(-c2csc(NCc3ccco3)n2)cc1
92	-24%	Cc1ccc(OC(C)C(=O)N2CCN(c3ccccn3)CC2)cc1 (stereo not drawn)
93	-15%	CCCCC(=O)N(CCOC)c1nnc(-c2ccc(OC)cc2)s1
94	16%	COc1ccc(C)cc1NC(=O)C(OC(=O)CNC(=O)c1ccc(Oc2ccccc2)cc1)c1ccccc1 (stereo not drawn)
95	5%	CCCC(C)C(=O)Nc1nnc(C)s1 (stereo not drawn)
96	12%	Cc1cc(-c2ccc(C)c(S(=O)(=O)NCCCN3CCN(c4ccccc4F)CC3)c2)on1
97	-6%	COc1ccc(-c2cc(C(=O)Nc3ccccc3)on2)cc1
98	5%	O=C(NCc1cccnc1)Nc1ccc(Br)cc1Cl
99	4%	COc1cc(NC(=O)c2cc(C3CC3)nc3c2c(C)nn3-c2ccc(C)cc2)cc(OC)c1
100	2%	Cc1c(S(=O)(=O)NC(C)c2ccccc2)c(=O)n(C)c(=O)n1C (stereo not drawn)
101	-20%	COCCOC(=O)C1=C(C)NC(C)=C(C(=O)OCCOC)C1/C=C/c1ccccc1OC
102	-5%	CC(=O)Nc1ccc(NC(=O)CCOc2cc(C)ccc2C)cc1
103	-14%	CCOC(=O)c1sc(NC(=O)CC(C)c2ccccc2)nc1C (stereo not drawn)
104	-16%	Cc1cccc(-c2noc(-c3ccc(Cl)cc3[N+](=O)[O-])n2)c1
105	11%	CC(NC(=O)Nc1ccc(Cl)cc1)c1ccc2c(c1)OCO2 (stereo not drawn)
